# Source: PubChem
# SmPrx2 inh: Schistosoma Mansoni Peroxiredoxins (Prx2). S. mansoni Prx2 activity coupled to TGR/GSH (TGR is thioredoxin glutathione reductase), NADPH fluorescence loss, qHTS; some inactives read as strong as hits. hit rate 0.07% among 65,000. Potency, µM. AID 448, 2006. Schistosoma mansoni peroxiredoxin 2 (Prx2); active means full or partial inhibition curve with a strong effect at the top dose; inconclusive means weaker partial or single-point curve; inactive means no accepted curve; also: series up to 57 µM; many of its hits are not listed in these tables
#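 Prx2 activity was followed as the loss of NADPH fluorescence (ex 365/em 450 nm), read every 30 sec for 8 min after H2O2 start. The enzyme mix (50 nM Prx2, 25 nM TGR, GSH, NADPH; pH 7.4 phosphate buffer) was incubated with compound for 15 min at room temperature first.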
# LT uptake inh: qHTS Assay for Anthrax Lethal Toxin Internalization | Cells, anthrax lethal toxin internalization, FRET ratio (460/530) | Potency, µM (doses to about 40 µM), inactives show top-dose activity change, negative = inhibition, usual class: inhibitors | hit rate 0.67% among 70,000 | AID 912, 2007; active = well fitted falling ratio curve with the 530 nm signal flat; inconclusive = other ratio curves, or a change in one channel alone; inactive = flat curves in the ratio and both channels; the % refers to the ratio; also: % is scaled to controls: 0 for no effect and ±100 for the full control effect; nearly all actives have a fitted effect of over 50% in size; tested in ME-180 cells; beta-lactamase reporter
# Starred values were filed as active, the others as inactive; ? = inconclusive; · = not tested or not shown; & = joins results of further samples; [ ] = another dose, or the depositor's remark. Potency is read from the fitted curve at half-maximal effect. An excerpt; rates above refer to the full screens.
SMILES,SmPrx2 inh,LT uptake inh
N#Cc1cc2cc3c(cc2nc1N1CCCCC1)OCCO3,>57,-3.0%
COC(=O)Cn1nc(-c2ccc(C)c(S(=O)(=O)N(C)C)c2)c2ccccc2c1=O,·,-12.1%
CCc1sc(C(=O)NC)cc1Br,>57,3.6%
OCc1ccccc1OCCOc1ccc(Cl)c2cccnc12,>57,-12.5%
CC1CCCC(NC(=O)C2CCN(S(=O)(=O)N3CCC4(CC3)OCCO4)CC2)C1C (centres undefined),>57,1.4%
CCOC(=O)C1CCN(C(=O)CSc2cc(=O)n(CC)c3ccccc23)CC1,>57,?
COc1ccc(S(=O)(=O)N2CCCCCC2)cc1C(=O)OCc1c(C)noc1C,>57,-7.9%
COc1ccc(S(=O)(=O)N2CCN(C3CCN(Cc4ccccc4)CC3)CC2)cc1,·,-22.4%
COC(=O)c1cc(NC(=O)CN(c2ccc3c(c2)OCO3)S(C)(=O)=O)ccc1Cl,>57,·
CC1CCN(C(=O)c2ccc(COc3ccccc3Cl)o2)CC1,>57,12.3%
COc1ccc(S(=O)(=O)N2CCCN(CC(=O)C(C)(C)C)CC2)cc1,>57,-7.1%
CCOC(=O)c1ccc(NC(=O)NC(C)C2CCCO2)cc1 (centres undefined),>57,16.9%
Cn1cc(C(=O)NCCN2CCN(c3cccc(Cl)c3)CC2)c2c3ccccc3n(C)c2c1=O,>57,0.5%
COC(=O)N1[C@H](C)C=C[C@]1(Cc1ccccc1)C(=O)OC,·,-8.6%
C=CCSc1nc2c(c(=O)[nH]c(=O)n2C)n1Cc1ccc(C)cc1,>57,-2.7%
COC(=O)c1ccc(NC(=O)CN2C(=O)CSC2=O)cc1,>57,2.2%
O=C(O)[C@@H]1[C@@H](C(=O)NCc2cccnc2)[C@@H]2C=C[C@@H]1O2,>57,?
O=C(CC1(O)C(=O)Nc2ccccc21)c1ccc(-n2cccc2)cc1 (centres undefined),>57,2.2%
C=CCn1c(N)c(C(=O)OCC(C)C)c2nc3ccccc3nc21,>57,?
COc1cccc(NS(=O)(=O)c2ccc3c(c2)n(C)c(=O)c(=O)n3C)c1,>57,?
COC(=O)C1=C(N)N(c2ccc(F)cc2)C2=C(C(=O)CCC2)C1c1ccc2c(c1)OCO2 (centres undefined),>57,-1.2%
Cc1cccc(Nc2nc(-c3ccccn3)cs2)n1,>57,?
CCn1c(C(C#N)/C(=N\S(=O)(=O)c2cccs2)c2ccccc2)nc2ccccc21 (centres undefined),>57,-2.2%
CN1CC=C2C(C#N)=C(N)C(C#N)(C#N)C(CCc3ccccc3)C2C1 (centres undefined),>57,?
CC1(C)CC(=O)C=C(NCc2cccnc2)C1,·,2.0%
CC(Oc1ccccc1)C(=O)NC1CC(C)(C)NC(C)(C)C1 (centres undefined),>57,?
O=c1oc(-c2cccs2)nc2sc3c(c12)CCC3,>57,0.0%
COc1ccc(S(=O)(=O)NCc2ccccn2)c(Cl)c1Cl,>57,-17.4%
COc1ccc(CCNC(=O)CC2COc3ccccc3O2)cc1OC (centres undefined),>57,-1.8%
COCCCNC(=O)CSC1=Nc2ccccc2C2=NC(CC(=O)NCc3ccccc3)C(=O)N12 (centres undefined),>57,8.3%
COC(=O)c1c(NC(=O)c2nc3ncccn3n2)sc(C(=O)N(C)C)c1C,>57,2.5%
CCN(CC)C(=O)c1sc2nc(-c3ccc(OC)cc3)cn2c1C,>57,2.9%
COCCNC(=O)Cn1nc(C)c2ccccc2c1=O,>57,·
CCOC(=O)c1c(C)[nH]c2cc(Br)c(OC)cc12,>57,-15.3%
O=C(c1ccncc1)N1CCC2(CC1)CCN(c1ncccn1)CC2,>57,-6.3%
CCSc1nnc(-c2ccccc2NC(=O)CC)c(=O)[nH]1,>57,7.8%
O=C(NCc1ccccc1)N1CCC(n2cnc3cc(F)ccc32)CC1,>57,8.6%
COc1ccc(OCC(=O)Nc2ccc(S(=O)(=O)Nc3cc(C)nc(C)n3)cc2)cc1,>57,-1.7%
Cc1nnc2c(-c3ccccc3)nc3ccccc3n12,·,1.9%
COC(=O)c1ccc(NC(=O)CSc2nncn2C)cc1,>57,-10.4%
C=COCCNC(=O)Nc1ccc(Cl)c(Cl)c1,>57,?
CSCC[C@@H]1NC(=O)C/C=C\[C@@H](C)COC(=O)[C@H](C)COC1=O,·,2.7%[1.6 µM]
CCCOc1cccc(C(=O)N(Cc2ccco2)C2CCS(=O)(=O)C2)c1 (centres undefined),>57,-12.1%
COc1ccc(C(=O)N2CCC3(CC2)CCN(c2ncccn2)CC3)cc1,>57,0.6%
CCOC(=O)N1CCN(C(=O)CCN2C(=O)COc3ccc(C)cc32)CC1,>57,-2.0%
NC(=O)c1ccsc1NC(=O)C1CCCN1S(=O)(=O)c1ccc(Cl)cc1 (centres undefined),>57,?
CS(=O)(=O)n1nc(C(=O)N2CCOCC2)nc1N,>57,-1.1%
Cn1c(CN2CCCCC2)c(C#N)c2ccccc21,>57,-6.2%
Cc1nc2cnc(N3CCNCC3)nc2n(CCC#N)c1=O,>57,-3.5%
COc1cccc(NC(=O)c2oc3ccccc3c2NC(=O)c2ccc3c(c2)OCO3)c1,>57,-12.5%
O=S1(=O)N=C(N2CCOCC2)c2ccccc21,>57,-8.8%
C=CCNC(=O)NC(=S)c1ccccc1,>57,-6.2%
CC(C)(OOC(C)(C)c1ccccc1)c1ccccc1,·,-25.8%
Cn1c(=O)c2[nH]c(CNCc3ccccc3Cl)nc2n(C)c1=O,>57,-14.4%
COCCCNS(=O)(=O)c1ccc(OC)c(Cl)c1Cl,>57,2.4%
CCOC(=O)c1c(NC(=O)CSc2nnc(C)s2)sc2c1CCN(C)C2,>57,?
COc1ccc2cc(CN(Cc3cccnc3)S(=O)(=O)c3ccccc3)c(=O)[nH]c2c1,·,0.3%
O=C(Nc1ccccc1)NC1(C(=O)N2CCN(c3ncccn3)CC2)CCCCC1,>57,6.8%
COC(=O)C1=C(C)Nc2ncnn2C1c1ccccn1 (centres undefined),>57,-1.3%
O=C(COC(=O)c1cc2ccccc2o1)c1ccccc1,>57,-10.3%
# The listing continues:
SMILES,SmPrx2 inh,LT uptake inh
Cc1cccc(N2CCN(C(=O)C3CCCN(S(=O)(=O)c4c(C)noc4C)C3)CC2)c1C (centres undefined),>57,?
CCOC(=O)c1c(NC(=O)CSc2nnc(Cc3csc(N)n3)n2C)sc(C)c1C,>57,12.7%
Cc1ccc(S(=O)(=O)N2CCN(C(=O)CCC(=O)N3CCc4ccccc43)CC2)cc1,>57,?
CCCn1c(C)cc(=O)c2cc(NC(=O)c3cnccn3)ccc21,>57,4.8%
Cc1cc(C(=O)CSc2nnc(-c3ccccc3)n2-c2ccccc2)c(C)n1-c1ncn[nH]1,>57,10.6%
CSCCC(NC(=O)CCN1C(=O)c2ccccc2C1=O)C(=O)O (centres undefined),>57,-1.1%
CCNc1ncc2nc(CCc3ccccc3)c(=O)n(C)c2n1,>57,?
O=C(CN(Cc1ccccc1)C(=O)CCC(=O)Nc1ccccn1)NCc1ccco1,>57,12.5%
Cc1ccc(CN2C(=O)CCC2C(=O)NCc2ccco2)cc1 (centres undefined),>57,6.0%
Oc1cccc(Nc2ncnc3ccccc23)c1,>57,-14.3%
N=C(N)c1c(O)n(C2CCCCC2)c(=O)n(C2CCCCC2)c1=O,>57,?
CN1CCC[C@H](C(=O)OCC(=O)[C@]2(O)CC[C@@H]3[C@H]4CCC5=CC(=O)CC[C@@]5(C)[C@H]4[C@@H](O)C[C@]32C)C1,>57,9.8%[8 µM]
Cc1cc(C)nc(-n2nc(C)cc2NC(=O)c2cc3ccccc3oc2=O)n1,>57,5.5%
COc1cccc(C(=O)NC2(C(F)(F)F)N=C3SCCN3C2=O)c1 (centres undefined),>57,11.2%
CCCCn1c(SCC(=O)OCC)nc2c1c(=O)[nH]c(=O)n2C,>57,22.9%
O=C(CSc1nnc2c(Cl)cc(C(F)(F)F)cn12)Nc1ccc2c(c1)OCO2,>57,?
C=C1C2(C(=O)NCc3ccco3)CCC(C2)C1(C)C (centres undefined),>57,-9.2%
CCCn1c(NC(=O)C2CCN(S(=O)(=O)c3cccs3)CC2)nc2ccccc21,>57,?
CCNc1nc(NC(C)C)nc(OCCNS(=O)(=O)c2cc(C)ccc2C)n1,>57,13.4%
COc1ccc(NC(=O)NCc2cccnc2)cc1OC,>57,3.2%
Cn1nnnc1Sc1ncnc2scc(-c3ccccc3)c12,>57,?
COc1ccccc1NC(=O)CSc1nnc(Cn2c(=O)sc3ccccc32)n1C,>57,-8.1%
S[C@@H]1CCCN(Cc2ccccc2)C1,?,-17.2%[8 µM]
O=C(Cn1ccc2ccccc2c1=O)NCCC(=O)N1CCN(c2cccc(C(F)(F)F)c2)CC1,>57,1.1%

# Reprinted at random: 5 compounds from above, in no set order.
SMILES,SmPrx2 inh,LT uptake inh
O=C(Cn1ccc2ccccc2c1=O)NCCC(=O)N1CCN(c2cccc(C(F)(F)F)c2)CC1,>57,1.1%
COc1ccccc1NC(=O)CSc1nnc(Cn2c(=O)sc3ccccc32)n1C,>57,-8.1%
S[C@@H]1CCCN(Cc2ccccc2)C1,?,-17.2%[8 µM]
COc1cccc(C(=O)NC2(C(F)(F)F)N=C3SCCN3C2=O)c1 (centres undefined),>57,11.2%
CCNc1nc(NC(C)C)nc(OCCNS(=O)(=O)c2cc(C)ccc2C)n1,>57,13.4%

# (listing goes on)
SMILES,SmPrx2 inh,LT uptake inh
O=C(Nc1ccc(S(=O)(=O)NCc2cccnc2)cc1)c1ccco1,>57,-8.4%
O=P(O)(O)/C=C(\Cl)c1ccccc1,·,12.4%
Cn1c(=O)c2c(nc(CN3CCc4ccccc4C3)n2CCc2ccccc2)n(C)c1=O,>57,3.3%
CCn1c(SCC(=O)OCc2ccccc2)nnc1-c1ccco1,>57,-18.2%
CCc1ccc2[nH]c(=O)c(CN(Cc3nnnn3C3CCCC3)C3CCCCC3)cc2c1,>57,-21.5%
Cc1cc(C)nc(SCc2nnc(SCC(=O)OC3CCCCC3)o2)n1,>57,22.2%
CN(C)c1nc(-c2ccoc2)nc2ccccc12,>57,6.7%
CN1CC2=Cc3ccccc3OC23Oc2ccccc2C=C3C1,>57,?
CNC(=O)c1ccc(OCc2ccccc2)c(OC)c1,>57,-4.2%
COc1ccc2c(c1)nc1n2CN(CC2CCCO2)CN1Cc1ccccc1 (centres undefined),>57,?
O=C(NC1CC2CCCC(C1)N2C(=O)N1CCCCC1)C1CCCCC1 (centres undefined),>57,-2.1%
CN(Cc1ccco1)c1nc(-c2ccccc2C(F)(F)F)nc2ccccc12,>57,?

# Full records, quoted from the list:
# Entry for O=P(O)(O)/C=C(\Cl)c1ccccc1 → SmPrx2 inh: ·; LT uptake inh: 12.4%
# Entry for CN(Cc1ccco1)c1nc(-c2ccccc2C(F)(F)F)nc2ccccc12 → SmPrx2 inh: >57; LT uptake inh: ?

# Next entries follow.
SMILES,SmPrx2 inh,LT uptake inh
COC(=O)[C@@]1(Cc2ccc(OC)cc2)[C@H]2c3cc(C(=O)N(C)C)n(CCc4ccc(O)c(OC)c4)c3C[C@H]2CN1C(=O)c1ccccc1,>57,14.1%
COc1ccccc1-c1ccc2ncnc(NCc3cccnc3)c2c1,>57,?
Nc1ccc(C(=O)C[C@H](N)C(=O)O)cc1O,>57,-1.4%[8 µM]
COc1ccc(S(=O)(=O)NC(CC(=O)NCc2ccccc2OC)c2ccco2)cc1 (centres undefined),>57,18.2%
COCCSc1nnc(NC(=O)C2CCCO2)s1 (centres undefined),>57,-10.9%
O=C1C=C(NCc2ccc(Cl)cc2)CC(c2ccco2)C1 (centres undefined),·,-12.7%
Cc1c(C#N)c2ccccc2n1CC(=O)NCc1cccnc1,>57,2.3%
Cc1ccc(S(=O)(=O)NCCc2ccncc2)cc1,>57,-6.3%
O=C(O)c1cc(-c2ccncc2)nc2ccccc12,>57,-5.2%[8 µM]
O=C1OCCN1P(=O)(c1ccccc1)c1ccccc1,·,-2.7%
CC1(C(=O)NC2CCCCC2)CCC(=O)N1Cc1cccnc1 (centres undefined),>57,1.6%
COCc1nnc(NC(=O)CCC2CCCCC2)s1,>57,0.0%
O=C(Oc1nsnc1N1CCOCC1)N1CCCCC1,>57,8.8%
COc1ccc(C(C(=O)NC2CCCCC2)N(CC2CCCO2)C(=O)CNC(=O)c2ccco2)cc1 (centres undefined),>57,-7.2%
CC1Cc2ccccc2N1C(=O)CSc1nnc2sc3ccccc3n12 (centres undefined),>57,?
COc1ncc2ncc(=O)n(C[C@H]3CCCO3)c2n1,>57,1.6%
COc1ccc(OC)c(NC(=O)CSc2ccccc2)c1,>57,-5.8%
CC(C)[C@@H]1N[C@]2(C(=O)Nc3ccccc32)[C@@H]2C(=O)N(c3cccc(C(F)(F)F)c3)C(=O)[C@@H]21,>57,·
COC(=O)Nc1ccc(S(=O)(=O)N2CCCCCC2)cc1,>57,-23.1%
CCN(CC)S(=O)(=O)N1CCC(C(=O)NCCN2CCOCC2)CC1,>57,-8.1%
O=C(CCC1CCCCC1)Nc1c2c(nn1-c1ccc(F)cc1)CS(=O)(=O)C2,>57,?
Cc1ccccc1S(=O)(=O)O[C@@H]1NS(=O)(=O)c2ccccc21,>57,-4.2%[8 µM]
Nn1c(SCC(=O)NC2CCCCC2)nnc1-c1ccc(Cl)cc1,>57,-12.2%
CCOc1ccccc1NC(=O)c1cc(Cl)ccc1NC(=O)c1ccco1,>57,-21.3%
COc1ccc2c(c1O)-c1c(OC)c(OC)cc3c1[C@H](C2)N(C)CC3,>57&>57,?
